Bioassay records as filed in PubChem BioAssay.
VDR inh: inhibitors of human vitamin D receptor | hit rate 0.93% among 400,000 | VDR-SRC2-3 peptide fluorescence polarization, 2 h | P11473 | Potency, µM, without a hit: max response, negative = inhibition, actives largely listed as inhibitors; active means well fitted inhibition curve with a large enough effect; inconclusive means small, poorly fitted or top-dose-only effect, or another doubt; inactive means no such curve, though single readings can be large or run the other way; further: series mostly up to about 120 µM
Target sequence (P11473 whole entry, looked up): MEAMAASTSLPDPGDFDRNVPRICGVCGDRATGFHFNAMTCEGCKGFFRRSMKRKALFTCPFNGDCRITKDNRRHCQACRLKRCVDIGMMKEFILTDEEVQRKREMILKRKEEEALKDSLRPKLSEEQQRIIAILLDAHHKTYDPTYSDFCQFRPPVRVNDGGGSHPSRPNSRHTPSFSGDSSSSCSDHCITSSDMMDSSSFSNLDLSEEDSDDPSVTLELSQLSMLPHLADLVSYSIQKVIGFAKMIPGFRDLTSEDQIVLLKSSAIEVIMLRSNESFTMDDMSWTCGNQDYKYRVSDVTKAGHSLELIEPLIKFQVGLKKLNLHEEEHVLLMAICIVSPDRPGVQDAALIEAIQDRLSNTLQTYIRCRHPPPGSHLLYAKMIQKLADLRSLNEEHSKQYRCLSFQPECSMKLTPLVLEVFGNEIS
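FP read-out; VDR + SRC2-3 coactivator peptide; 23 nl compound by pintool; 2 h RT incubation; reagents held at 4 deg C, protected from light.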
Starred values were filed as active, the others as inactive; ? = inconclusive; & = joins results of further samples. On the % scale 0 is the no-effect control and ±100 the full control effect; potency means the concentration at half of the fitted maximal effect. These rows are one share of the data; rates above refer to the full screens.

Compound	VDR inh
CCN1C(=O)[C@H]2[C@@H](c3ccc(-c4ccccc4)cc3)N[C@@](C)(C(=O)OC)[C@H]2C1=O	-16.3%
C#C[C@]1(O)CC[C@@H]2[C@H]3CCC4=Cc5oncc5C[C@]4(C)[C@@H]3CC[C@@]21C	-18.1%
Cn1ncc2c(NNC(=O)c3ccc(Cl)cc3Cl)ncnc21	-3.6%
CN(C)C(=O)C(=O)c1cccn1-c1cccc(Cl)c1C#N	-15.6%
O=C(NCc1ccco1)c1cccc2c1C(=O)N(C1CCCCC1)C2	8.3%
Cc1ccc(S(=O)(=O)NCCCC(=O)N2CCC(C)CC2)cc1	-19.1%
CC1(C)CC(=O)C2=C(C1)OC(N)=C(C#N)C2C1C=CCCC1 (centres undefined)	-3.2%
CC(C)CCNC(=O)C1CCC(CNc2c(N3CCC(C)CC3)c(=O)c2=O)CC1 (centres undefined)	14.1%
O=c1cc(-c2ccc(Cl)c(Cl)c2)[nH][nH]1	-11.6%
CC(=O)c1ccc(N2CCN(c3ccc(S(=O)(=O)NCCCN(C)C)cc3[N+](=O)[O-])CC2)cc1	-10.7%
CC1=C(C(=O)Nc2ccccn2)C(c2cccnc2)n2nnnc2N1 (centres undefined)	-3.1%
CCN(Cc1ccccc1)c1ccc(N=Nc2nn(C)c(C)c2[N+](=O)[O-])cc1	-9.9%
Nc1ccc(/C=C/C(=O)c2cccs2)cc1	-12.9%
O=C(O)c1cc([N+](=O)[O-])c(Nc2cccc3ccccc23)c([N+](=O)[O-])c1	-4.7%
Cc1ccc(F)cc1NC(=O)N1CCNC(=O)C1CC(=O)Nc1cc(Cl)ccc1Cl (centres undefined)	12.0%
O=C(Nc1ccc(N2C(=O)C3C4C=CC(C4)C3C2=O)cc1)Nc1nncs1 (centres undefined)	1.7%
Cc1ccc(C(=O)NCCc2ccc(S(N)(=O)=O)cc2)cc1[N+](=O)[O-]	-11.8%
CCc1ccccc1N1CC(C(=O)O)CC1=O (centres undefined)	2.6%
O=C(NCCc1ccccc1)C1CCCN(S(=O)(=O)c2cccs2)C1 (centres undefined)	13.7%
O=C(CCS(=O)(=O)c1cccc2nsnc12)Nc1ccc(F)cc1	-16.5%
CC(C)(C)C(=O)CN1C(=O)NC2(CCc3ccccc32)C1=O (centres undefined)	7.7%
Cc1nc2ccccc2n1CC(O)COc1ccccc1Cl (centres undefined)	-14.3%
Cn1c(=O)c2c(-c3ccc(C(C)(C)C)cc3)n(N3CCOCC3)cc2n(C)c1=O	-2.5%
Cc1ccc(-n2c(=O)c(C#N)cc3c(=O)n4cccc(C)c4nc32)cc1	1.4%
CCN(CC)S(=O)(=O)c1ccc(N2CCN(c3ccccc3O)CC2)nc1	18.7%
O=C(NNS(=O)(=O)c1ccc(F)cc1)c1ccccc1	-9.2%
COc1cccc(/C=C2\N=C(C3CCCCC3)OC2=O)c1OC	31.6µM*
CCOc1ccc(C(=O)Nc2ccc(-n3nncc3-c3ccccc3)cc2)cc1OCC	10.3%
O=C(NCc1nnc(SCC(=O)N2CCCC2)o1)c1ccccc1F	1.7%
Cc1ccc(N2CC(C(=O)Nc3nc4ccc(S(C)(=O)=O)cc4s3)CC2=O)cc1C (centres undefined)	-1.3%

Reformatted: results already given
> O=C(NCc1nnc(SCC(=O)N2CCCC2)o1)c1ccccc1F
  VDR inh: 1.7%

> O=C(NNS(=O)(=O)c1ccc(F)cc1)c1ccccc1
  VDR inh: -9.2%

> Cc1ccc(-n2c(=O)c(C#N)cc3c(=O)n4cccc(C)c4nc32)cc1
  VDR inh: 1.4%

> O=C(NCCc1ccccc1)C1CCCN(S(=O)(=O)c2cccs2)C1 (centres undefined)
  VDR inh: 13.7%

Next section.
Compound	VDR inh
COc1ccc(-c2c(-c3cc(OC)cc(OC)c3)n(C)c3ccc(-c4ccc(OC)cc4F)cc23)cc1	3.2%
CCN(CC)CCNC(=O)c1ccc(Cn2c(=O)c3cccn3c3cccnc32)cc1	5.4%
CCOC(=O)c1c(C)[nH]c(C(=O)COC(=O)CNC(=O)c2ccc(Cl)cc2Cl)c1C	-6.3%
Nc1ccc2oc(-c3cccc4ccccc34)nc2c1	0.2%
CCOc1ccc(-n2nc(C(=O)N3CCN(CC)CC3)c3ccccc3c2=O)cc1	11.0%
COc1cc2c(cc1O)[C@@H]1Cc3cc(O)c(OC)cc3[C@H](C2)N1C	-8.7%
COC(=O)c1cn(C(=O)c2ccc(F)cc2)c2ccccc12	2.9%
Cc1c(CC(=O)N[C@@H](C)C(=O)O)c(=O)oc2cc3occ(-c4ccccc4)c3cc12	?
CCc1ccccc1NC(=O)/C(C#N)=C/c1ccc(Sc2ccccc2)o1	-13.6%
Clc1ccc(SCc2cc(N3CCOCC3)nc(-c3ccccn3)n2)cc1	5.9%
CC1(C)CC(=O)c2sc(NS(=O)(=O)c3ccccc3)nc2C1	-11.3%
Cc1ccc(NC(=O)c2sc3nc[nH]c(=O)c3c2C)cc1Cl	8.7%
CCC(=O)N1CCC2(CC1)Oc1ccc(F)cc1C(=O)C21CC(c2cccnc2)=NO1 (centres undefined)	-2.0%
Cc1nc2c(-c3ccccc3)c[nH]n2c(=O)c1Cc1ccccc1	12.2%
Cc1ccc(-c2csc(/C(C#N)=C(\O)CCl)n2)cc1	-1.0%
COc1ccc(CN2CCN(Cc3c[nH]c4ccccc34)CC2)cc1	8.4%
Cc1cccc(C)c1NC(=O)CC1SC2=NCCN2C1=O (centres undefined)	?
O=[N+]([O-])c1ccc(N2CCOCC2)cc1N1CCCCC1	-22.5%
COc1cccc(NC(=O)C23CCC(C)(C(=O)O2)C3(C)C)c1 (centres undefined)	-2.2%
CC1CCN(C(=O)c2c(NC(=O)c3ccccc3Cl)sc3c2CCC(C(C)(C)C)C3)CC1 (centres undefined)	-29.6%
CC1(C(=O)NCCN2CCOCC2)C=CC2(CCCCC2)N1C(=O)c1ccccc1 (centres undefined)	-4.3%
O=C(CSc1ccc2nnc(-c3cccnc3)n2n1)N1CCOCC1	0.1%
O=C1CC(N2CCN(S(=O)(=O)c3ccccc3F)CC2)C(=O)N1c1ccccc1Cl (centres undefined)	-5.7%
CCOC(=O)C1=NN(c2ccc(OC)cc2)C2C(=O)N(c3ccccc3OC)C(=O)C12 (centres undefined)	-2.4%
C=CCc1ccc(OCCCCNC(C)CC)c(OC)c1 (centres undefined)	1.4%
O=C(Cn1ccn(-c2ccc(F)cc2)c(=O)c1=O)NCCc1ccccc1	-2.8%
COc1ccc(NC(=O)C2CCN(S(=O)(=O)c3ccc4c(c3)CC(C)N4C(C)=O)CC2)c(OC)c1 (centres undefined)	15.6%
COC(=O)c1cccc(NC(=O)C2COc3ccccc3O2)c1C (centres undefined)	3.9%
CC(C)Oc1ccc(/C=C(/NC(=O)c2ccccc2)C(=O)NC(Cc2ccccc2)C(=O)O)cc1 (centres undefined)	-8.0%
COc1cccc(CNC(=O)Cn2nc(C)c3c(C)n(-c4ccc(C)cc4)nc3c2=O)c1OC	-0.2%
Cc1cc(C)nc(SCC(=O)NNS(=O)(=O)c2ccc(C#N)cc2)n1	-11.6%
O=c1cccccc1NN=C1CCCCC1	3.8%
Cc1cc(C)n(CC(=O)Nc2cc(F)ccc2F)c(=O)c1C#N	3.4%
O=C(Nc1ccc(-c2nc3ccccc3o2)cc1)c1cc(-n2cnnc2)ccc1Cl	-5.5%
CN(C(=O)c1cccs1)c1ccccc1C(=O)O	-1.3%
O=C(CSc1nc2ccsc2c(=O)n1Cc1ccccc1F)NCc1ccccc1	4.6%
O=C(CSc1nnc(NC(=O)Cc2ccccc2)s1)NCC1CCCO1 (centres undefined)	2.1%
Cc1cc(NC(=O)c2cc(C3CC3)on2)n(-c2ccccc2)n1	-14.2%
Cc1cccc(C2N=C(N)Nc3nc4ccccc4n32)c1 (centres undefined)	-8.8%&-2.1%
COc1ccc(S(=O)(=O)N2CCC(C(=O)NCC3CCCCC3)CC2)cc1	-0.5%
CCCCNC(=O)CN(C1CCCCC1)S(C)(=O)=O	-17.7%
CCCCC(=O)NC(c1ccco1)c1cc(Cl)c2cccnc2c1O (centres undefined)	1.8%
Cc1c(C2Nc3ccccc3C(=O)N2O)cnn1C (centres undefined)	2.7%
O=C(O)CCNC(=O)c1ccc(NC(=O)C(c2ccccc2)c2ccccc2)cc1	-5.3%
Nc1ncnc2nc(SCCC(=O)O)[nH]c12	-0.8%

Reprinted at random: four entries already listed.
Compound	VDR inh
CCN1C(=O)[C@H]2[C@@H](c3ccc(-c4ccccc4)cc3)N[C@@](C)(C(=O)OC)[C@H]2C1=O	-16.3%
O=C(Nc1ccc(-c2nc3ccccc3o2)cc1)c1cc(-n2cnnc2)ccc1Cl	-5.5%
COc1cccc(/C=C2\N=C(C3CCCCC3)OC2=O)c1OC	31.6µM*
Cc1ccc(C(=O)NCCc2ccc(S(N)(=O)=O)cc2)cc1[N+](=O)[O-]	-11.8%

The listing continues:
Compound	VDR inh
COc1ccc(Cc2n[nH]c(=S)o2)cc1	-6.2%
O=c1[nH]c(CSc2nnc(-c3ccccc3)n2-c2ccccc2)nc2ccccc12	8.8%
Cc1ccc(CNC(=O)C(=O)NCC(c2cccnc2)N2CCN(c3ccccc3F)CC2)cc1 (centres undefined)	10.8%
CCCCOc1ccc(N=Cc2ccc[nH]2)cc1	-1.3%
Cc1ccc2cc(CN(c3ccccc3)S(=O)(=O)c3ccccc3)c(=O)[nH]c2c1	15.8%
Cc1nc2sc(C(c3cccs3)N3CCN(Cc4ccccc4)CC3)c(O)n2n1 (centres undefined)	-8.8%
COc1ccccc1N1CCN(C(=O)c2cnc(N3CCCCC3)c3ccccc23)CC1	2.0%
Cc1ccccc1-c1cc(C(=O)NCC2CC2)n(CC2CC(c3cccnc3)=NO2)n1 (centres undefined)	-15.4%
Cc1ccc(C)c(NC(=O)C(Sc2nnc(-c3cccs3)o2)c2ccccc2)c1 (centres undefined)	-5.5%
COCC(=O)N1CCC2(CCN(Cc3cc(C(F)(F)F)cc(C(F)(F)F)c3)CC2)CC1	?
Fc1cccc(Cl)c1/C=N/Nc1ccccn1	-10.5%
CCCc1c(C(=O)N/N=C/c2ccc(C)s2)nnn1-c1nonc1N	-21.9%
CC1CCCN(c2csc3ccc(F)cc3c2=O)C1 (centres undefined)	7.7%
COC(=O)c1cccc(NC(=O)c2ccc3c(c2)C(=O)N(Cc2cccnc2)C3=O)c1C	3.5%
COc1ccccc1NC(=O)c1c[nH]c2ccccc12	-2.2%
O=C(CN1C(=O)S/C(=C\c2cc(Cl)c(O)c(Cl)c2)C1=O)Nc1ccccc1	7.4%
Cc1ccc(C)c(Nc2c(F)c(F)c(F)c(F)c2C(=O)O)c1	-19.5%
COCc1[nH][nH]c(=O)c1C=Nc1ccccc1	4.6%
CC(=O)Oc1oc(-c2ccccc2)nc1/C=N/c1ccccn1	22.4µM*
Cn1c(=O)c(=O)n(C)c2cc(N3CCOCC3)c(NS(=O)(=O)c3ccc(Cl)cc3)cc21	5.2%
Clc1ccc(OCCCn2ccnc2)c(Br)c1	?
CC(=O)N[C@@H](C)C(=O)OC(C)C(=O)Nc1cccc([N+](=O)[O-])c1 (some centres undefined)	-0.3%
COc1ccc(C(=O)Cn2c(=O)n3nc(CCn4nc(C)cc4C)nc3c3cc(OC)c(OC)cc32)cc1	8.5%
FC(F)(F)c1ccccc1NC(=S)Nc1cccc(Cl)c1	8.9%
O=C1c2ccccc2C(=O)N1c1cc([N+](=O)[O-])ccn1	-0.8%
O=C(CCCc1ccccc1)NCc1ccc(Cl)cc1	-4.7%
COCC1CCN(C(=O)c2cc(COc3ccc(-n4cncn4)cc3)on2)CC1	-6.1%
Cc1cccc([C@@H]2[C@@H]3C(=O)N(Cc4ccccc4)C(=O)[C@@H]3[C@]3(Cc4ccccc4)C(=O)N(c4ccc(C(F)(F)F)cc4)C(=O)N23)c1	-15.2%
CCOC(=O)c1c(-c2ccccc2)nnn1-c1nc(OC)nc(N2CCOCC2)n1	1.7%
CCOC(=O)C1CCN(c2c(Nc3cc(C)cc(C)c3)c(=O)c2=O)CC1	-8.1%
CCOc1cc(/C=N/NC(=O)c2nnn(-c3nonc3N)c2C)ccc1OCc1ccc(F)cc1	-18.6%
CCN1CCN(c2ccc(S(=O)(=O)N3CCOCC3)cc2NC(=O)c2cccc([N+](=O)[O-])c2)CC1	-2.4%
COc1cc2c(cc1OC)CN(C(=O)COc1ccc(C)c(C)c1)CC2	-12.0%
O=[N+]([O-])c1ccc(CNC2CCCc3ccccc32)cc1 (centres undefined)	-4.7%
O=C(COC(=O)c1ccccc1F)NC(=O)NC1CCCC1	-7.9%
CCC(C)N1CCN(S(=O)(=O)Cc2ccccc2)CC1 (centres undefined)	-7.0%
CCN(CC)/C(Sc1ccccc1)=C(/C(Cl)=C(Cl)Cl)[N+](=O)[O-]	-10.4%
O=C(NCCc1nnc2ccc(N3CCCCCC3)nn12)c1ccccc1	-20.7%
Cc1ccc(C(=O)OCC(=O)Nc2ccccc2)cc1S(=O)(=O)N1CCCCC1	-1.3%
O=C(COC(=O)CNS(=O)(=O)c1ccc(Br)cc1Cl)NC1CC1	-10.6%
CCCCCn1c(CNC(=O)CC)nc2ccccc21	13.3%
O=C1/C(=C/c2ccc(F)cc2)SC(=S)N1CCCC(=O)N1CCCCC1CCO (centres undefined)	-25.1%
